YopH PTP inh = YopH (Yersinia) phosphatase inhibition | AID 898 | inhibition, %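 (about 10 µM by stock and volumes)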 | 140,000 compounds, 0.16% hits | fluorescence Ex485/Em525;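 active means inhibition of 50% or more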;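 further: controls were vehicle for no effect and minimum signal wells for full effect; inactives centre near -20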
Arbovirus anti = antivirals against arbovirus infection. arbovirus infection cell-based antiviral screen. inhibition, % at 10 µM. 200,000 compounds, 0.37% hits;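 active means inhibition from about 30%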;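 further: bluetongue infection of BSR cells; cell survival read as ATP light after 72 h; 0% = infected wells without compound and 100% = uninfected wells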
Mtb betalactam = beta-lactam sensitization of Mtb H37Rv | M. tuberculosis H37Rv growth with meropenem, percent inhibition; hits of this screen are not shown here | inhibition, % at 25 µM | 330,000 compounds, 0.27% hits | AID 434955;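 active means about 74% or more and at least 40 points above the plate without the antibiotic, then above 30% in a dose series; inconclusive means first-round hits that could not be retested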;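 further: growth measured after seven days incubation then overnight dye step; 0% = bacteria only wells and 100% = bacteria with antibiotic; twin plates without the antibiotic show which effects depend on it; some results filed as inactive read as strong as hits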
Mtb growth = M. tuberculosis H37Rv growth inhibitors, H37Rv strain (AID 1626); M. tuberculosis H37Rv growth inhibition; higher % means a stronger effect; inhibition, % at 10 µM; hits with a dose series show IC50 in µM; 220,000 compounds, 0.95% hits;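 active means confirmed in a dose series; inconclusive means inhibition above 80% but not taken into the dose series; inactive means below 80% or under 30% at every dose of the series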;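 further: bacteria incubated seven days before Alamar blue readout; 0% = bacteria only wells and 100% = bacteria with antibiotic wells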
RecA splice inh = blocks M. tuberculosis RecA intein splicing. P9WHJ3. cell-free RecA intein splicing, fluorescence. inhibition, %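 (about 9 µM by stock and volumes)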. 290,000 compounds, 0.75% hits. AID 2221; in the data active means inhibition above about 30%; inconclusive means no clear call, values can overlap the other calls;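 further: 0% = vehicle wells and 100% = reference inhibitor control wells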
Target sequence (P9WHJ3 whole entry, looked up, canonical isoform): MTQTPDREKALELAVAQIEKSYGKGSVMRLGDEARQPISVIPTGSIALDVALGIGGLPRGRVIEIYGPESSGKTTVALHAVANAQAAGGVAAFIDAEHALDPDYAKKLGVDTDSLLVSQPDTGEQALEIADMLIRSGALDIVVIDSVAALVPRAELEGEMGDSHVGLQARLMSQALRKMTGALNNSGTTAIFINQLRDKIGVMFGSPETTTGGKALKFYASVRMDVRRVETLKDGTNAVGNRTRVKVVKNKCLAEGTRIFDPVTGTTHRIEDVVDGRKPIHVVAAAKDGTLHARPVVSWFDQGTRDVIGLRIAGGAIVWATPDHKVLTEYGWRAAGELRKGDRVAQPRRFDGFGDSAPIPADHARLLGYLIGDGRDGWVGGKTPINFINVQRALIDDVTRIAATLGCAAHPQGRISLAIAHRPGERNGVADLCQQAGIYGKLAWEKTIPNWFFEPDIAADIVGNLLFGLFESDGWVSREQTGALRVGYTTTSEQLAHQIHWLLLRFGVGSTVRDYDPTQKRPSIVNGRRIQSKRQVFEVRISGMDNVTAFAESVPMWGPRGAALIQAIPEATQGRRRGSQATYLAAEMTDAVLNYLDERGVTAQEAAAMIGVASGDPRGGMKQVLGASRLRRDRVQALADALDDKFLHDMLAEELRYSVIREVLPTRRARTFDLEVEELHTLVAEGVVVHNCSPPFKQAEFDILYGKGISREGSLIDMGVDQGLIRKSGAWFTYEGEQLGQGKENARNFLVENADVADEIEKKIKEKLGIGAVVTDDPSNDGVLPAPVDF
Arbovirus anti repeat = also measured in Arbovirus anti; calls as there; inhibition, %; measured here: 10K subset replicate screen; many hits read low in the repeat;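 first of two repeat runs on a subset; 0% = infected and 100% = uninfected wells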
Active calls of the source: *; ? = inconclusive; / = no result given. Only part of the results is shown. The share of hits here may be higher or lower than overall.

SMILES	YopH PTP inh	Arbovirus anti	Mtb betalactam	Mtb growth	RecA splice inh	others
COc1ccc(-c2cc(C(=O)NC3CCCC3)no2)cc1OC	-16	3	56	9%	-0.8
O=c1[nH]c(CSc2ncnc3sccc23)nc2ccccc12	/	/	-6	-1%	1.8
CCCCCOc1ccc(NC(=O)C(=O)NCCCn2ccnc2)cc1	-20	-13	9	0%	0.3
COc1cc2c(C(=O)N3CCN(c4cccc(Cl)c4)CC3)cn(CC(C)C)c(=O)c2cc1OC	-4	-34	95	14%	3.6
O=S(=O)(c1ccc(F)cc1F)N1CCCN(c2ccc(C(F)(F)F)cn2)CC1	/	/	-5	5%	5.4
Cc1cc(N2CCCCC2)nc2ccccc12	/	0	-2	2%	-4.6
CCc1ccccc1NC(=O)CN1C(=O)C2CCCN2c2ncc(Cl)cc21 (centres undefined)	-29	0	1	0%	/
O=C(/C=C/c1cccs1)NCc1ccccc1	/	5	-2	3%	0.9
Cc1ccc(S(=O)(=O)N2CCN(c3cc4c(cc3[N+](=O)[O-])n(C)c(=O)n4C)CC2)cc1	-40	6	-1	-1%	2.2
CC(C)c1c(C(=O)N/N=C/c2ccccc2OCc2c(F)cccc2Cl)nnn1-c1nonc1N	/	/	5	/	12
CC(Nc1nc(-c2ccc(F)cc2)cs1)c1nc2cc(Cl)c(N3CCCCC3)cc2n1CCCO (centres undefined)	/	/	96	78%	7.3
CCOc1ccccc1OCCOc1ccc(F)cc1	-50	-10	90	6%	-0.1
COc1ccc(N2CCN(C(=O)CSc3nc(C)cs3)CC2)cc1	/	/	-10	/	-1.5
Cc1nc2cc(C(=O)N3CCC4(CC3)OCCO4)ccc2n1-c1ccc(Br)cc1	-40	-3	-1	-1%	1.4
C=CCNC(=O)CN(CCc1ccccc1)S(=O)(=O)c1ccccc1	/	/	9	/	12
O=C(c1ccco1)N(Cc1ccccc1)Cc1ccccn1	/	3	-6	16%	-0.7
Cc1c(-c2ccc(/C=N/NC(=O)C(=O)Nc3ccccc3F)o2)cccc1[N+](=O)[O-]	/	/	-1	14%	/
NNC(=O)c1ccc(COCC(F)(F)F)cc1	/	/	12	-13%	-1.2
CCOC(=O)c1oc2ccccc2c1COC(=O)CNC(=O)c1cc(OC)c(OC)c(OC)c1	/	/	0	/	2.8
O=C(ONC1=NCCCCC1)c1ccc([N+](=O)[O-])cc1	/	8	3	1%	/
CCSc1nnc(NC(=O)C2CCN(S(=O)(=O)c3c(C)c(C)cc(C)c3C)CC2)s1	-10	10	3	-2%	0.5
CCOC(=O)c1cc(CC)sc1NC(=O)COc1ccc2c(C)cc(=O)oc2c1	-29	-13	1	2%	2.0
O=C(Nc1ccc2c(c1)OCO2)C1CCN(C(=O)c2ccc(Cl)cc2)CC1	/	-20	-8	-1%	-1.8
Cc1ccc(S(=O)(=O)N(C)C)cc1-n1c(SCC(=O)N(C)C)nc2ccccc2c1=O	/	9	-7	-2%	-4.9
Cc1c(C(=O)NCC2CCCO2)oc2ccc(S(=O)(=O)N3CC(C)CC(C)C3)cc12 (centres undefined)	-29	12	4	0%	1.7	Arbovirus anti repeat=-4
CCOc1ccc(NC(=O)CN2C(=O)c3ccccc3C2=O)cc1	/	/	-3	/	0.1
CCN(CC)S(=O)(=O)c1ccc(N=Nc2cc(C)cc(Br)c2O)cc1	/	/	5	/	0.0
O=C(Cn1ncc2c1-c1ccccc1OC2)N1CCc2ccccc21	-6	-10	2	3%	0.2	Arbovirus anti repeat=-7
CCc1nn(CC(=O)N2CCC3(CC2)OCCO3)c(=O)c2cc3ccccc3n12	/	/	-9	/	-0.9
O=c1[nH]c(-c2ccccc2)cnc1-c1ccccc1	/	/	-3	/	-0.5
O=C(CNC(=O)c1cccc(Br)c1)N/N=C/c1cccs1	/	/	-1	/	-5.8
CC(Sc1nc(-c2ccccc2)cc(C(F)(F)F)n1)C(=O)N1CCC(C(N)=O)CC1 (centres undefined)	-10	4	-1	-1%	-6.1
CCOC(=O)C1=C(O)C(=O)N(C2CCCCC2)C1	/	/	7	-2%	-2.9
COc1ccc(CNC(=O)C[C@H]2C(=O)N(CCc3ccccc3)C[C@@H]2Cc2ccccc2)cc1	/	/	9	/	0.3
O=C(Nc1ccc(Cl)c([N+](=O)[O-])c1)C(NCCCO)c1ccccc1 (centres undefined)	-25	10	13	5%	0.2
CCOC(=O)c1c(C)[nH]c(NC(=O)Nc2ccc(NC(C)=O)cc2)c1C	/	/	5	/	-2.3
C=CCOc1ccc(/C(O)=C2\C(=O)C(=O)N(CCCOC)C2c2ccc(O)c(OC)c2)cc1 (centres undefined)	-50	0	19	-7%	0.0
N#CCCn1nnc(-c2ccccc2F)n1	-18	-6	-8	-8%	/
CC(=O)Nc1ccc(S(=O)(=O)Nc2nc3ccccc3nc2N2CCc3ccccc3C2)cc1	-36	19	-4	3%	4.1
O=C(CCl)c1ccc2c(c1)CCN2C(=O)C1CCCCC1	/	8	100	/	80*
CCN(CC)S(=O)(=O)c1ccc2c(c1)c(C(=O)O)cn2C	0	3	-1	7%	-14
Cc1ccc(OCC(=O)OC2CCS(=O)(=O)C2)cc1 (centres undefined)	-30	-24	8	1%	0.8
CCCCC(=O)NNC(=O)CC(=O)Nc1ccccc1C(=O)O	/	/	-3	-3%	-1.6
Cc1ccc(S(=O)(=O)N/N=C/c2cccs2)cc1	/	-3	11	5%	-0.8
Cc1ccc(C(=O)C(C)OC(=O)CNC(=O)c2ccc(Br)o2)cc1 (centres undefined)	/	/	-8	/	-2.4
S=c1[nH]nc(-c2cc(-c3ccccc3)n[nH]2)n1/N=C/C(Br)=C/c1ccccc1	/	/	99	?	7.0
Cc1ccc(NC(=O)c2ccc(-n3cncn3)c([N+](=O)[O-])c2)cc1	1	4	8	-4%	-7.1
Cc1ccc(CNC(=O)N2CCN(C)CC2)cc1	-23	4	0	1%	0.2

The final three compounds of the section above lead into the next:
SMILES	YopH PTP inh	Arbovirus anti	Mtb betalactam	Mtb growth	RecA splice inh	others
S=c1[nH]nc(-c2cc(-c3ccccc3)n[nH]2)n1/N=C/C(Br)=C/c1ccccc1	/	/	99	?	7.0
Cc1ccc(NC(=O)c2ccc(-n3cncn3)c([N+](=O)[O-])c2)cc1	1	4	8	-4%	-7.1
Cc1ccc(CNC(=O)N2CCN(C)CC2)cc1	-23	4	0	1%	0.2
CCCCNC(=O)c1cc2c(-c3ccc(Cl)cc3)nn(C)c2s1	-40	2	1	6%	/	Arbovirus anti repeat=2
CCOc1ccc(N2C(=O)CC(NCCc3c[nH]c4ccccc34)C2=O)cc1 (centres undefined)	/	0	6	-1%	11
CC(=O)Nc1c(-c2ccccc2Cl)c(=O)c2ccccc2n1C	/	/	2	/	2.1
Cc1ccc2occ(/C=N/NC(=O)c3ccncc3)c(=O)c2c1	/	/	100	/	-5.9
COc1cc(OC)c(C2N(c3cc(C)on3)C(=O)C3CCCN32)cc1OC (centres undefined)	11	2	-13	-6%	-0.1
O=C(NO)c1ccc(OC(F)F)cc1	-24	8	-6	/	-1.9
O=C(CSc1nnc(COc2ccc(Cl)cc2)o1)N1CCOCC1	/	3	-11	3%	3.4
O=C1CCCc2[nH]c3cccc(/C(=C/c4ccccc4)c4ccccc4)c3c21	/	/	-3	/	19
Cc1c(-c2csc(N)n2)cnn1C	/	0	-3	0%	-2.3
CC(=O)NCC1CCCN(Cc2cn(-c3ccccc3)nc2-c2ccc3c(c2)OCO3)C1 (centres undefined)	/	1	-4	-2%	0.9
CC(C)Oc1ccc(C(=O)NCc2cccnc2)cc1	-22	4	6	1%	-1.3
O=C(CN1CCCC1)Nc1ccc([N+](=O)[O-])cc1	/	4	-3	1%	-3.3
O=C(NC(=S)N1CCCCC1)C12CC3CC(CC(C3)C1)C2	-14	-3	5	-5%	2.7
Fc1cccc(Nc2c3c(nc4ccccc24)CCC3)c1	/	/	9	/	3.5
CCN(C(=O)COC(=O)c1cccnc1Nc1cccc(C(F)(F)F)c1)C1CCS(=O)(=O)C1 (centres undefined)	-24	15	-8	-3%	-25
FC(F)(F)c1cnc(Oc2cccc3ccccc23)c(Cl)c1	-22	-8	-2	-10%	2.6
CCOc1ncccc1C(=O)OCC(=O)Nc1ccc(C)c(S(=O)(=O)N(C)C)c1	/	3	5	2%	5.3
COC(=O)C1=C(C)N(Cc2ccco2)C(=O)N[C@@H]1c1ccco1	/	/	2	4%	4.2
COC(=O)c1c(C)oc2ccc(N(C(=O)c3ccncc3)S(=O)(=O)c3ccc(C)cc3)cc12	-15	-21	5	14%	12
CCOC(=O)c1sc(NC(=O)c2cc(-c3ccccc3)nc3ccccc23)c(C#N)c1C	-38	-21	69	6%	0.9
Cc1ccc(Cn2ccc(NC(=O)c3noc4c3CCCCC4)n2)cc1	-18	6	-8	-4%	0.1
COc1ccc(C(=O)Nc2ccc(N3CCN(C(=O)C(C)C)CC3)cc2)cc1[N+](=O)[O-]	-20	-12	-1	-3%	-1.3
COc1cc(C2/C(=C(\O)c3ccc4c(c3)CC(C)O4)C(=O)C(=O)N2CCN2CCOCC2)cc(OC)c1OC (centres undefined)	/	/	-21	/	-2.9
C=CCc1ccccc1OCC(O)CN1CCN(CCN2C(=O)c3cccc4cccc(c34)C2=O)CC1 (centres undefined)	-6	-44	99	?	4.4

Reprinted from above, 3 compounds:
SMILES	YopH PTP inh	Arbovirus anti	Mtb betalactam	Mtb growth	RecA splice inh	others
CCOC(=O)c1sc(NC(=O)c2cc(-c3ccccc3)nc3ccccc23)c(C#N)c1C	-38	-21	69	6%	0.9
Cc1ccc(Cn2ccc(NC(=O)c3noc4c3CCCCC4)n2)cc1	-18	6	-8	-4%	0.1
COc1ccc(C(=O)Nc2ccc(N3CCN(C(=O)C(C)C)CC3)cc2)cc1[N+](=O)[O-]	-20	-12	-1	-3%	-1.3

Next part:
SMILES	YopH PTP inh	Arbovirus anti	Mtb betalactam	Mtb growth	RecA splice inh	others
O=C(OCC(=O)C12CC3CC(CC(C3)C1)C2)c1cccnc1	/	20	5	14%	1.0
CC1(C)CC(=O)c2sc(NS(=O)(=O)c3cc(Cl)ccc3Cl)nc2C1	/	/	5	/	-2.2
CCC(=O)Nc1nc(C)cc(SCC(=O)OC)n1	-40	6	-4	-23%	-0.3
COCCOC1CCN(C(=O)C2CCC(=O)N(Cc3cccc(F)c3)C2)CC1 (centres undefined)	/	/	4	/	-2.7
CCCCC(=O)Nc1ccc(C(=O)NCc2ccncc2)cc1	-27	8	48	-6%	-0.2
O=C(CCn1cccn1)Nc1ccc2c(c1)OCO2	/	/	-1	/	4.7
CCOC(=O)N1CCN(C(=O)c2nn(-c3ccc(C)cc3)c(=O)c3c2c2ccccc2n3C)CC1	-27	-11	7	/	4.8
Cc1ccccc1CN1CCN(C(=O)c2cccc3ccccc23)CC1	/	/	-1	/	6.6
CCCS(=O)(=O)N1CCCC(C(=O)NCCN2CCCCC2C)C1 (centres undefined)	-23	8	-13	-9%	0.0
CCOc1ccc(CCNC(=O)COC(=O)c2cccc(S(=O)(=O)N3CCCC3)c2)cc1OCC	/	/	-1	/	2.4
Cc1cccc(N2CCN(S(=O)(=O)c3ccc4c(c3)CCCN4C(=O)C3CCC3)CC2C)c1 (centres undefined)	/	/	0	/	0.7
COc1ccccc1N1C(=NC(=O)COc2ccccc2)SC2CS(=O)(=O)CC21 (centres undefined)	/	/	3	/	1.8
CC(NC(=O)Cc1ccc(F)cc1)c1ccc(F)cc1 (centres undefined)	-25	-2	6	9%	-0.2
CC1CC(NC(=O)c2cnc3n(c2=O)CCS3)CC(C)(C)C1 (centres undefined)	/	-6	37	13%	0.6	Arbovirus anti repeat=-4
NC(=O)[C@H]1CC2(CC(c3cccc(NC(=O)COc4ccc(Cl)cc4)c3)=NO2)CN1C(=O)c1ccc(Cl)cc1 (some centres undefined)	/	/	83	0%	13

Arranged by formula weight (ascending): 6 of the compounds above.
SMILES	YopH PTP inh	Arbovirus anti	Mtb betalactam	Mtb growth	RecA splice inh	others
O=C(CCn1cccn1)Nc1ccc2c(c1)OCO2	/	/	-1	/	4.7
CCCCC(=O)Nc1ccc(C(=O)NCc2ccncc2)cc1	-27	8	48	-6%	-0.2
CC1CC(NC(=O)c2cnc3n(c2=O)CCS3)CC(C)(C)C1 (centres undefined)	/	-6	37	13%	0.6	Arbovirus anti repeat=-4
Cc1ccccc1CN1CCN(C(=O)c2cccc3ccccc23)CC1	/	/	-1	/	6.6
COc1ccccc1N1C(=NC(=O)COc2ccccc2)SC2CS(=O)(=O)CC21 (centres undefined)	/	/	3	/	1.8
CCOC(=O)N1CCN(C(=O)c2nn(-c3ccc(C)cc3)c(=O)c3c2c2ccccc2n3C)CC1	-27	-11	7	/	4.8
